# Screening data (PubChem BioAssay)
# Beta cell apopt: beta cell apoptosis inhibition; protection from apoptosis, % (no concentration beside the values); INS-1E cytokine-induced death, ATP luminescence, 48 h; percent of positive-control rescue, neutral wells zero; AID 435005; 300,000 tested, 0.8% active;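 active means all replicates at 75% or more, or half of them and the mean; inconclusive means half reach 75% but not the mean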;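 further: 0% = cytokine-treated negative control wells and 100% = positive control rescue; higher means more ATP so stronger rescue from cytokine killing; wells of about 40 µL received 100 nL stock; the first replicate is given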
# T cruzi inh: T. cruzi replication inhibition. T. cruzi beta-gal in NIH3T3, luminescence, 90 h. 300,000 tested, 1.4% active. inhibition, % (no concentration beside the values);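 active means mean inhibition across valid replicates above about 55%, limit read from the data; inconclusive means mean below that limit but half or more replicates reach it; inactive means mean below it, under half of replicates reach it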;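 further: signal also drops with host cell toxicity which is not excluded here; 0% = plate median of DMSO wells and 100% = zero luminescence signal; higher percent means less beta-gal luminescence so fewer parasites; stock transfer was 50 nL into about 50 µL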
# Beta2AR agonist: agonists of human beta-2 adrenergic receptor inducing internalization; P07550; Am2.2-beta2AR cells, FAP receptor internalization, flow cytometry; reference of the scale not given here; response, % (test concentration not listed); 340,000 tested, 0.43% active;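 active means response above a set limit, near 3 SD of response in nonfluorescent compounds, cut at about 42% in these data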;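 further: stock transfer was 100 nL into about 11 µL; a reference agonist was the positive control; negative values mostly stem from fluorescent compounds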
# Target sequence (P07550 whole entry, looked up): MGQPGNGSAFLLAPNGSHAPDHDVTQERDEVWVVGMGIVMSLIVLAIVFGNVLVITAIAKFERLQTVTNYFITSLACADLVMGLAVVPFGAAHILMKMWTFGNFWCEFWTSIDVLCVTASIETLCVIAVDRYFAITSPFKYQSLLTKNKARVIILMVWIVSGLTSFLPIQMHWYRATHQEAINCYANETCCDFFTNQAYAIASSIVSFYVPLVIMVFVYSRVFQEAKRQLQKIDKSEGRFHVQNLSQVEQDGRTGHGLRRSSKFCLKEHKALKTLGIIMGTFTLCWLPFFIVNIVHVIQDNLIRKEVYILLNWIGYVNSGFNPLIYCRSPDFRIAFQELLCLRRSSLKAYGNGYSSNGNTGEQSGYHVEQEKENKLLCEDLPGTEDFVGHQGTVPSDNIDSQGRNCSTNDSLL
# UCH37 inh: inhibitors of human deubiquitinating enzyme UCH37 | Q9Y5K5 | purified proteasome/UCH37, Ub-AMC cleavage fluorescence | inhibition, % (no concentration beside the values) | 330,000 tested, 0.33% active;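 active means mean of two replicates above 20%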;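 further: 0% = compound-free wells with enzyme and 100% = wells lacking proteasome; stock transfer was 100 nL into about 20 µL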
# Target sequence (Q9Y5K5 whole entry, looked up): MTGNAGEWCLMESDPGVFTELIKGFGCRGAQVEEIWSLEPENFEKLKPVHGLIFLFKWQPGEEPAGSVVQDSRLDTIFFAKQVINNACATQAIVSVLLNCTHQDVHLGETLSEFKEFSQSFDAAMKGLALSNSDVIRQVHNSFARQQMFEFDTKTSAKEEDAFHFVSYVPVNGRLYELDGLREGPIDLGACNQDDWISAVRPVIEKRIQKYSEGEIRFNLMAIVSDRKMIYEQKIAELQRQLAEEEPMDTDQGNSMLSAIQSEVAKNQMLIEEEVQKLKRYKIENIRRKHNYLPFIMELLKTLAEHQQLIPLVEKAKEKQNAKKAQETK
#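 Test system – human UCH37 enzyme supplied as purified proteasome complex · Incubation – 30 min preincubation with enzyme, 25 min cleavage at room temperature · Detection – AMC fluorescence from Ub-AMC cleavage, excitation 355 nm, emission 460 nm · Benchmarks – no-proteasome wells (full inhibition) and compound-free wells (no inhibition)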
# LANA-H2A inh: blocks KSHV LANA binding to histone H2A/H2B. inhibition, % (no concentration beside the values). Q9QR71. 320,000 tested, 0.6% active. cell-free LANA-H2A/H2B peptide, fluorescence polarization. AID 2629; in the data active means inhibition mostly above about 10%, no sharp cut-off; inactive means mostly below about 6.7%;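 further: stock transfer was 7.5 nL into about 10 µL; 0% = median of vehicle wells and 100% = median of positive control wells; one replicate is shown; the record names a cut of 25% in any replicate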
# Calb FLC: C. albicans growth modulation with fluconazole; C. albicans CaCi-2 (fluconazole-resistant clinical isolate) + fluconazole, Alamar Blue growth, 48 h; growth inhibition, % (concentration not given with the values); 300,000 tested, 0.57% active; AID 1979;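 active means most replicates above 75%; inconclusive means exactly half above 75%; inactive means most below 75%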;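 further: all wells also contain fluconazole at 8 µg/ml as a sub-toxic cotreatment; 0% = median of DMSO wells and 100% = median of geldanamycin control wells; wells of about 8 µL received 7.5 nL stock; the first replicate is given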
# Bfl-1 A1 inh: inhibitors of the anti-apoptotic protein A1, read as caspase activation; MEF A1-2A-BIM cells, Caspase-Glo 3/7 luminescence, 3 h; percent of clofoctol response, vehicle zero; caspase activation, % (no concentration beside the values); 330,000 tested, 0.066% active; AID 2462;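 active means over half of replicate activation scores above 10%, or exactly half above 10 with the replicate mean above 10; inconclusive means replicate mean below 10 yet half the replicates above 10; inactive means over half of replicates below 10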;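 further: wells of about 30 µL received 50 nL stock; many hits fall short of the cut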
# RanGTP-Imp inh: disruptors of Ran-importin-beta complex formation – biochemical, FRET, CFP-Ran, YFP-importin-beta, homogeneous, primary screen. cell-free CFP-Ran/YFP-importin-beta FRET ratio. inhibition, % (no concentration beside the values). 300,000 tested, 1.1% active. AID 2216;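 active means most replicates above 15%; inconclusive means exactly half above 15%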;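 further: 0% = DMSO wells and 100% = Ran loaded with GDP instead of GTP; wells of about 40 µL received 100 nL stock; the first replicate is given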
# * marks the source's active call; other numbers are inactive results; ? = inconclusive; / = no result given.
no. | Structure | Bfl-1 A1 inh | UCH37 inh | T cruzi inh | LANA-H2A inh | Beta2AR agonist | Beta cell apopt | RanGTP-Imp inh | Calb FLC
1 | Cc1csc(NC(=O)CSc2ncnc3ccccc23)n1 | -0.7 | 2.1 | -0.8 | 1.5 | -6.3 | -7.7 | 2.8 | 4.3
2 | Cc1ccccc1Cn1c(=O)c2c(nc3n2CCCN3Cc2ccccc2)n(C)c1=O | 0.8 | 1.9 | -7.8 | -1.7 | 1.6 | 13.6 | ? | 0.1
3 | C/C(CC(=O)N(C(C)C)C(C)C)=N\NC(=O)COc1ccc(Cl)cc1Cl | 2.2 | / | -2.1 | 1.4 | -26.2 | 0.7 | -5.6 | ?
4 | O=C(CSc1nc2[nH]ncc2c(=O)[nH]1)Nc1ccc(OC(F)(F)F)cc1 | 0.2 | 5.3 | 3.9 | -9.9 | -1.8 | / | -0.1 | 8.3
5 | CCCN(CC(=O)Nc1ccc(C(C)=O)cc1)CC(=O)Nc1ccccc1C | ? | 0.8 | 9.7 | -5.3 | -5.2 | 6.1 | -2.4 | -1.2
6 | CC1CCN(C(=O)CCCC(=O)N2CCC(C)CC2)CC1 | -0.5 | 5.1 | -5.0 | 0.9 | 9.4 | -2.8 | 0.6 | -0.7
7 | COc1ccc(CCn2c(C)cc3c(c2=O)C(c2ccc4c(c2)OCO4)C(C#N)=C(N)O3)cc1OC (configuration not stated) | -0.6 | -1.2 | 5.1 | 1.6 | -0.9 | 3.1 | -4.9 | 108.7*
8 | CC(=O)c1ccc(NC(=S)NCc2ccc(Cl)cc2Cl)cc1 | 1.4 | 4.7 | 1.2 | 1.5 | 2.4 | -2.2 | -0.1 | -6.2
9 | COc1ccc(C(Nc2ccc(S(=O)(=O)NCC3CCCO3)cc2)C(=O)NC(C)(C)C)cc1OC (configuration not stated) | -0.6 | 5.3 | 3.3 | 2.8 | 3.4 | -7.5 | -6.4 | -1.5
10 | Cn1nc(-c2ccccc2)c(CSc2ccccc2Cl)c1Cl | 0.7 | 0.3 | 11.8 | -6.2 | -129.4 | -14.5 | -2.2 | ?
11 | CC1(C)Cc2c(c(=S)nc(-c3ccccc3)n2CCCN2CCOCC2)CO1 | -0.1 | 5.3 | 17.8 | 11.5 | -0.4 | -1.5 | -1.1 | 13.1
12 | CN1CCN(C2=Cc3ccccc3Sc3cc(F)ccc32)CC1 | 0.4 | 3.2 | 25.2 | 7.6 | -3.2 | -1.6 | 0.0 | -2.7
13 | Cc1cccc(C(=O)NCC(=O)NCC2COc3ccccc3O2)c1 (configuration not stated) | -0.8 | 0.5 | 5.7 | 2.7 | 7.7 | 2.9 | -0.1 | 5.7
14 | CO/N=C/CC(=O)c1ccc(OC)cc1 | -1.2 | / | 4.7 | 0.4 | 0.3 | 1.9 | 2.5 | -26.4
15 | CN1c2ccccc2C(C)(C)C12CC(CCl)=NO2 (configuration not stated) | 1.0 | 2.1 | -0.7 | -2.7 | 12.9 | 6.1 | 3.0 | -6.5
16 | Cc1cc(=O)oc2c3c(cc(OCC(=O)NC(Cc4ccc(Cl)cc4)C(=O)O)c12)OC(C)(C)CC3 (configuration not stated) | 0.0 | -462.3 | -18.8 | 1.4 | -16.6 | 0.3 | -3.8 | -1.8
17 | CN1CCC2(CC1)Nc1nc(SCc3ccc(Cl)cc3)nn1C1=C2CN(C)CC1 | -0.2 | -0.2 | 15.4 | 3.7 | 11.7 | -7.3 | 5.3 | 5.1
18 | O=C(CCC(=O)N1CCN(c2ccccn2)CC1)Nc1nnc(C(F)(F)F)s1 | -0.4 | 4.9 | -1.0 | 6.5 | 1.2 | -4.8 | 8.5 | -35.6
19 | O=C(CSc1nncs1)NCc1ccc2c(c1)OCO2 | 0.4 | 2.8 | -7.7 | -3.9 | -4.9 | -9.0 | 4.3 | -2.8
20 | COc1ccc(-c2csc(N(CC3CCCO3)C(=O)c3ccccc3)n2)cc1 (configuration not stated) | 0.0 | -3.0 | 44.0 | -6.6 | 5.9 | 9.9 | 4.7 | 2.7
21 | CC(C)=NNc1nc2c(c(=O)n(C)c(=O)n2C)n1CCc1ccccc1 | -0.8 | -2.1 | 12.4 | 1.0 | -2.3 | -3.6 | 0.7 | 49.8
22 | Cc1nnc(N/N=C/c2cccc(C(F)(F)F)c2)n1N | 0.5 | / | -4.5 | -2.8 | -2.0 | 4.3 | -2.2 | 12.5
23 | CC(=O)OCCCNc1cc(Sc2ccc(C)cc2)c2nonc2c1[N+](=O)[O-] | 0.7 | 12.7 | 8.2 | -9.3 | 8.7 | -20.9 | -1.2 | 6.0
24 | COc1cc(C(C(=O)NCC2CCCO2)N(C(=O)Cn2nnc3ccccc32)c2ccc(OC)c(OC)c2)ccc1O (configuration not stated) | 0.0 | 4.2 | -5.1 | 3.8 | -0.4 | -5.4 | 3.7 | -3.7
25 | O=C(c1cnn2ccccc12)N1CCN(C2CCCCC2)CC1 | -0.7 | 0.7 | 6.5 | -3.8 | 5.5 | -0.9 | 1.4 | -6.3
26 | Cn1c(SCC(=O)c2ccc3c(c2)OCCO3)nnc1C(F)(F)F | 1.0 | 4.3 | 3.1 | -0.2 | -6.5 | -6.4 | 1.6 | 0.6
27 | Cc1ccc(C(C(=O)NC2CCCC2)N(Cc2cccs2)C(=O)CNC(=O)c2cccs2)o1 (configuration not stated) | -0.2 | 4.5 | 4.7 | 4.2 | -16.3 | -3.2 | 3.3 | -4.7
28 | O=C(O)c1cc(-c2ccc(N3CCOCC3)cc2)nn1-c1ccc(F)cc1 | 0.3 | 1.9 | -17.3 | -2.9 | -0.6 | -5.6 | 7.8 | 2.1
29 | Cn1c(N)c(C(=O)COC(=O)C2CCCN2C(=O)c2cccs2)c(=O)n(C)c1=O (configuration not stated) | 0.2 | 3.1 | -13.8 | 2.0 | 4.3 | -4.1 | 1.0 | -1.1
30 | CN(C)C(=O)CSc1nnc(Cc2ccccc2)n1Cc1ccco1 | 0.4 | -0.8 | -7.9 | 3.1 | -5.4 | 2.5 | 4.8 | 1.7

# Only Beta cell apopt, Calb FLC and Bfl-1 A1 inh, for two of the compounds above:
entry | Molecule | Beta cell apopt | Calb FLC | Bfl-1 A1 inh
16 | Cc1cc(=O)oc2c3c(cc(OCC(=O)NC(Cc4ccc(Cl)cc4)C(=O)O)c12)OC(C)(C)CC3 (configuration not stated) | 0.3 | -1.8 | 0.0
17 | CN1CCC2(CC1)Nc1nc(SCc3ccc(Cl)cc3)nn1C1=C2CN(C)CC1 | -7.3 | 5.1 | -0.2

# Complete entries as entered above. Values in the order: Bfl-1 A1 inh	UCH37 inh	T cruzi inh	LANA-H2A inh	Beta2AR agonist	Beta cell apopt	RanGTP-Imp inh	Calb FLC
# CC(C)=NNc1nc2c(c(=O)n(C)c(=O)n2C)n1CCc1ccccc1 in the list: -0.8	-2.1	12.4	1.0	-2.3	-3.6	0.7	49.8
# Cc1csc(NC(=O)CSc2ncnc3ccccc23)n1 in the list: -0.7	2.1	-0.8	1.5	-6.3	-7.7	2.8	4.3
# Cn1nc(-c2ccccc2)c(CSc2ccccc2Cl)c1Cl in the list: 0.7	0.3	11.8	-6.2	-129.4	-14.5	-2.2	?
# CN1CCC2(CC1)Nc1nc(SCc3ccc(Cl)cc3)nn1C1=C2CN(C)CC1 in the list: -0.2	-0.2	15.4	3.7	11.7	-7.3	5.3	5.1
# Cc1ccccc1Cn1c(=O)c2c(nc3n2CCCN3Cc2ccccc2)n(C)c1=O in the list: 0.8	1.9	-7.8	-1.7	1.6	13.6	?	0.1
